# Screening data (PubChem BioAssay)
# RanGTP-Imp inh = inhibitors of RanGTP-importin-beta interaction, primary screen, biochemical, FRET, CFP-Ran, YFP-importin-beta, homogeneous; cell-free CFP-Ran/YFP-importin-beta FRET ratio; inhibition, % (no concentration beside the values); hit rate 1.1% among 300,000; AID 2216;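 active = most replicates above 15%; inconclusive = exactly half above 15%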;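 note: 0% = DMSO wells and 100% = Ran loaded with GDP instead of GTP; wells of about 40 µL received 100 nL stock; the first replicate is given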
# HNF4A DNA FP = change in binding of human HNF4 alpha to DNA; P41235; HNF4a-FITC DNA binding, fluorescence polarization, 1 h; activity change, % at 10 µM; hit rate 0.3% among 360,000; AID 1224865; in the data active = activity change above about 30%, passing the limit was not always enough;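 note: controls were the assay level and a saturating level of protein; the project sought stronger binding though the title names inhibitors; some compounds called inactive have numbers as strong as hits; positive values seem to mean higher polarization but the record does not say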
# E coli growth = E. coli growth inhibition | OD600 absorbance (no concentration beside the values) | Escherichia coli growth, OD600, 23 h; hits give low values | hit rate 0.21% among 330,000;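 active = OD600 absorbance below the run mean of sample wells minus 3.6 SD, in any replicate, cut at about 0.56 in these data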;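 note: stock transfer was 300 nL into about 60 µL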
# FGF22 binding = binders of recombinant human FGF22 by thermal shift. Q9HCT0. SYPRO orange fluorescence; percent of sucrose octasulfate shift, DMSO zero. calls only at 9.99 µM. hit rate 1.5% among 340,000. AID 651658;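 active = melting point raised past a set limit in the mean and every replicate; inconclusive = no clear call; three in four hits are not shown here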
# Target sequence (Q9HCT0 whole entry, looked up): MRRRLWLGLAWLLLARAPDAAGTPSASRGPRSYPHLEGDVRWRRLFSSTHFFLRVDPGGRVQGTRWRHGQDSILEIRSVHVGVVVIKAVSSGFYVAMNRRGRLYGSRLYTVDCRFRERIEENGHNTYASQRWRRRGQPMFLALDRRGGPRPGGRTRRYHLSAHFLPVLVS
# AF4-AF9 inh = blocks AF4 peptide binding to human AF9; P42568; inhibition, % at 10 µM; AlphaScreen, biotin-AF4 peptide binding to FLAG-AF9; hit rate 0.47% among 350,000;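 active = every replicate reaching a set inhibition limit, whatever the replicate mean, cut at about 25% in these data; inconclusive = mean inhibition reaches that limit but some replicates miss it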;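 note: 0% = plate neutral control median and 100% = total signal loss; the record names both 10 and 1 µM as test concentration; the first replicate is given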
# Target sequence (P42568 whole entry, looked up): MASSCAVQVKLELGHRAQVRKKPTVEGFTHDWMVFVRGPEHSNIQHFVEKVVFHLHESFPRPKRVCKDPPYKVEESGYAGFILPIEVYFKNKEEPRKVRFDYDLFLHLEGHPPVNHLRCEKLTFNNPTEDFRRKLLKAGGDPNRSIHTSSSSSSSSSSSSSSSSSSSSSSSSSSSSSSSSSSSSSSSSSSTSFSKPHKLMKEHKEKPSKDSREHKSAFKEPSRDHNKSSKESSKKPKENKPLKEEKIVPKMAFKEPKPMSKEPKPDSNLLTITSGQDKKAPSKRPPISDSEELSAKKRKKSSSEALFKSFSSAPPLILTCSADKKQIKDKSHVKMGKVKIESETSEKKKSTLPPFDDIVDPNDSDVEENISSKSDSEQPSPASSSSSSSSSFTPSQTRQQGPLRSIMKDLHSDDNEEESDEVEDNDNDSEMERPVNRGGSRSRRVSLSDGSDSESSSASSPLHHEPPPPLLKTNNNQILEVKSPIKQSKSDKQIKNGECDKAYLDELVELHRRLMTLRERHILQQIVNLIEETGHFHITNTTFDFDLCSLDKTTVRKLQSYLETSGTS
# UCH37 inh = human UCH37 deubiquitinating enzyme inhibition; Q9Y5K5; purified proteasome/UCH37, Ub-AMC cleavage fluorescence; inhibition, % (no concentration beside the values); hit rate 0.33% among 330,000;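 active = mean of two replicates above 20%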;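 note: 0% = compound-free wells with enzyme and 100% = wells lacking proteasome; stock transfer was 100 nL into about 20 µL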
# Target sequence (Q9Y5K5 whole entry, looked up): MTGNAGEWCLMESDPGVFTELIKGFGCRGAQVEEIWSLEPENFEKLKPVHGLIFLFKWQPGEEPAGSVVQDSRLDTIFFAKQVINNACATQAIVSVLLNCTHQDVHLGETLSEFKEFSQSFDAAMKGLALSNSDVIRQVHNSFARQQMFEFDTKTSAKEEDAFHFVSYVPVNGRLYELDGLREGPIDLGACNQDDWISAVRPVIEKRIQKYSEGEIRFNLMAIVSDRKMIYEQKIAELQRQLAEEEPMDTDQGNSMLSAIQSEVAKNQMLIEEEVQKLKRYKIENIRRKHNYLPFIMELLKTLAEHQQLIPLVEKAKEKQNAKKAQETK
#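 Material: Human UCH37 enzyme supplied as purified proteasome complex | Schedule: 30 min compound-proteasome preincubation then 25 min substrate reaction, room temperature | Detection: AMC fluorescence from Ub-AMC cleavage, excitation 355 nm, emission 460 nm | Benchmarks: Wells without proteasome as full block, compound-free enzyme plus substrate as uninhibited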
# Vif TR-FRET = HIV-1 Vif–A3G interaction blockers – biochemical, TR-FRET, GST-Vif 1-94, biotin-A3G peptide, dose response retest, primary screen (AID 1117319). TR-FRET GST-Vif / biotin-A3G peptide binding; higher % means a stronger effect; test concentration not given here; strong numbers were not always called active. one-dose inhibition, %; IC50 in µM for titrated hits. hit rate 0.57% among 260,000;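 active = above the screen mean plus three standard deviations and confirmed in dose response; inconclusive = results disagree or hit not tested in dose response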;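 note: Vif residues 1-94 fused to GST binding biotinylated APOBEC3G peptide 110-148; 0% = full assay without inhibitor and 100% = GST in place of GST-Vif; retest series ran down from 100 µM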
# * = called active by the depositor; i = inactive; ? = inconclusive; nt = not tested or not shown; & = joins results of further samples.
SMILES,RanGTP-Imp inh,HNF4A DNA FP,E coli growth,FGF22 binding,AF4-AF9 inh,UCH37 inh,Vif TR-FRET
CCN1CCCC1CNC(=O)c1cc2cc(F)ccc2[nH]1 (stereo not given),?,-0.8,0.64,i,2.4,-11,-7%
CC1CCCCC1NC(=O)COC(=O)c1ccc2c(c1Cl)C(=O)c1ccccc1C2=O (stereo not given),?,-2.2,0.73,i,-1.0,3.4,3%
O=C(Nc1ccn(CCCNCC(c2ccccc2)c2ccccc2)c(=O)n1)OCc1ccccc1,nt,-6.8,nt,i,6.4,nt,-1%
O=C(Nc1nc2ccc(F)cc2s1)c1cccc(S(=O)(=O)N2CCc3ccccc32)c1,3.7,2.2,0.67,i,1.6,-13,2%
Cc1nn(Cc2ccccc2)c(C)c1C(=O)OCC(=O)c1cc(C)n(C2CC2)c1C,3.5,3.1,0.71,nt,nt,0.5,80µM*
COC(=O)c1cc(S(=O)(=O)NCC2CCN(Cc3cccc(Cl)c3)CC2)c[nH]1,5.1,-1.5,0.73,i,2.1,3.9,nt
Cc1nnc(SCC(=O)NCc2ccccc2)[nH]c1=O,?,-0.9,0.61,i,1.0,1.8,6%
Cc1ccc(Cl)cc1N1CCN(C(=O)CSc2nnc3n2C(C)(C)Cc2ccccc2-3)CC1,1.0,-0.9,0.72,nt,nt,1.8,-5%
COc1ccc(OC)c(-c2cc(C3CCN(C(=O)OC(C)(C)C)CC3)[nH]n2)c1,2.8,-1.9,0.71,nt,4.5,0.3,7%
C=CCn1cc(Cl)c(=O)n(CC=C)c1=O,-0.3,-0.9,0.68,nt,nt,0.7,0%
Cn1cnnc1SCc1ccccc1,-2.7,-8.8,0.76,nt,nt,-5.1,3%
CN1CCCN(C(=O)c2cccc3ccccc23)CC1,0.5,-2.2,0.67,i,1.7,-1.3,nt
COc1ccc(CCN2C(=O)CC(NNC(=O)c3cccc(O)c3)C2=O)cc1 (stereo not given),-0.8,-2.1,0.67,nt,nt,3.3,nt
CC[C@H](C)[C@H](NC(N)=O)C(=O)Nc1ccc2c(c1)OCO2,8.7,-3.2,0.71,i,1.7,4.5,nt
COC(=O)c1ccn(Cc2ccccc2Cl)n1,0.5,-0.2,0.69,i,-1.8,-1.2,-4%
Cc1cccc(OCCOCCN2CCOCC2)c1C,2.1,-1.0,0.66,i,3.4,-0.1,0%
COc1ccc(NC(=O)C2C(=O)NC3(C)CC2c2ccccc2O3)cc1 (stereo not given),3.8,-1.8,0.72,nt,nt,0.4,4%
Cc1ccc(C2(C)NC(=O)N(CC(=O)NCc3ccccc3Cl)C2=O)cc1 (stereo not given),-0.1,1.7,0.69,i,-1.5,3.6,-8%
O=C(NCc1ccc(F)cc1)c1cc(C2CCCN(S(=O)(=O)c3ccccc3)C2)on1 (stereo not given),nt,-0.6,nt,i,-6.5,nt,nt
O=C(Cn1c(-c2cscn2)nc2ccccc21)Nc1ccccc1F,-1.0,0.8,0.67,nt,nt,3.1,-5%
Cc1nc2cc(OCc3cc(C(=O)NC(C)c4cnn(C)c4)no3)ccc2s1 (stereo not given),-3.6,4.1,0.72,i,1.7,4.0,-4%
Cc1cc(=O)[nH]c(SCc2nnnn2-c2ccc(Cl)cc2)n1,0.5,-2.2,0.62,nt,nt,0.1,-7%
CCn1c(=N)n(CC(=O)c2cccc([N+](=O)[O-])c2)c2ccccc21,-2.7,4.3,nt,i,10,nt,?
O=C(N=Nc1c(O)[nH]c2ccc(F)cc12)C1COc2ccccc2O1 (stereo not given),4.5,0.7,0.72,i,0.4,3.5,-3%
Cc1ccc(NC(=O)CSCc2cc(=O)n3cc(C)sc3n2)cc1,-1.3,-0.8,0.71,i,0.0,4.6,nt
COC(=O)c1ccc(NC(=O)CSc2nc3ccccc3c(=O)[nH]2)cc1,0.9,-1.5,0.77,nt,nt,2.1,1%
CC1OC1c1ccc(-c2ccc(C3OC3C)cc2)cc1 (stereo not given),nt,5.7,0.66,i,0.6,0.5,3%
O=C(NCC1(N2CCOCC2)CCCCC1)c1cccc(S(=O)(=O)Nc2ccc(F)cc2)c1,nt,-0.3,0.66,i,1.1,-0.5,nt
O=C(O)CSCc1ccc(Cl)cc1,0.8,1.0,0.67,nt,nt,0.5,-1%
CCOC(=O)c1cn(-c2ccc([N+](=O)[O-])cc2)c2cc(Cl)c([N+](=O)[O-])cc2c1=O,1.6,-2.4,0.64,nt,nt,5.3,nt
COc1cc(NC(=O)COC(=O)CNC(=O)c2ccc(C)s2)cc(OC)c1,-1.4,-1.8,0.68,i,-1.5,-1.0,-2%
Cc1nn2c(NCC(C)C)c3c(nc2c1-c1ccccc1)CCC3,-2.6,0.1,0.78,nt,nt,-213,24%
COCCCNc1ccn2nc(-c3cccc(Cl)c3)cc2n1,nt,0.1,nt,i,6.5,nt,nt
Cc1ccc(NC(=O)CCN2CCC(C(N)=O)CC2)cc1,6.0,0.2,0.69,i,-3.0,4.1,nt
COc1ccc(OCC(=O)Nc2ccc3oc(=O)ccc3c2)cc1,2.5,-1.3,0.65,i,-1.2,-2.3,nt
CN(Cc1ccccc1Cl)C(=O)C1CCC(=O)N(C2CCCCCC2)C1 (stereo not given),2.1,2.1,0.72,i,2.3,1.9,nt
O=C(NCc1ccco1)c1cc2sccc2n1Cc1ccccc1,2.6,0.4,0.65,nt,nt,2.0,-4%
CCOC(=O)C1(C)Oc2cccnc2NC1=O (stereo not given),-1.3,-1.3,0.71,i,-1.5,0.5,-12%
COc1ccccc1-n1cnc2cc(NC(C)=O)ccc21,-2.8,-0.2,0.69,nt,nt,0.4,-7%
COc1ccc(CCNc2nc(-c3ccncc3)cs2)cc1OC,-2.3,-1.3,0.68,i,2.3,-2.3,-3%
CCOC(=O)N1CCN(c2nc(-c3ccc(Cl)cc3)cs2)CC1,1.2,-1.2,0.72,nt,nt,6.9,-1%
COc1ccc(S(=O)(=O)N2CCCCCC2)cc1NC(=O)CCc1cc(OC)c(OC)c(OC)c1,nt,0.7,0.71,i,-2.1,7.2,nt
C[C@@H]1CCCCCCCCCCC1=O,1.3,-0.2,0.66,i,-0.1,5.6,4%
CC(C)c1ccc(C(=O)COC(=O)C(O)c2ccccc2)cc1 (stereo not given),nt,2.4,0.67,i,-1.5,4.2,-12%
Cc1ccccc1-n1c(O)c(C=NC2CCS(=O)(=O)C2)c2ccccc2c1=O (stereo not given),-1.4,3.3,0.66,i,-1.7,6.3,1%
N#Cc1c(NC(=O)C(=O)NCCCN2CCOCC2)sc2c1CCC2,4.6,1.0,0.68,i,-0.6,9.8,nt
NC(c1ccccc1)c1csc(Nc2ccc(S(N)(=O)=O)cc2)n1 (stereo not given),nt,-0.9,nt,i,1.4,nt,nt
COc1ccc2cc(C=NS(=O)(=O)c3ccc(C)cc3)n(C)c2c1,nt,-2.7,0.63,nt,nt,2.9,nt

# Profiles, looked up by structure:
# Cc1ccc(NC(=O)CCN2CCC(C(N)=O)CC2)cc1 in the list: RanGTP-Imp inh = 6.0; HNF4A DNA FP = 0.2; E coli growth = 0.69; FGF22 binding = i; AF4-AF9 inh = -3.0; UCH37 inh = 4.1; Vif TR-FRET = nt
# COc1ccc(CCNc2nc(-c3ccncc3)cs2)cc1OC in the list: RanGTP-Imp inh = -2.3; HNF4A DNA FP = -1.3; E coli growth = 0.68; FGF22 binding = i; AF4-AF9 inh = 2.3; UCH37 inh = -2.3; Vif TR-FRET = -3%
# C=CCn1cc(Cl)c(=O)n(CC=C)c1=O in the list: RanGTP-Imp inh = -0.3; HNF4A DNA FP = -0.9; E coli growth = 0.68; FGF22 binding = nt; AF4-AF9 inh = nt; UCH37 inh = 0.7; Vif TR-FRET = 0%

# Next compounds follow.
SMILES,RanGTP-Imp inh,HNF4A DNA FP,E coli growth,FGF22 binding,AF4-AF9 inh,UCH37 inh,Vif TR-FRET
CCc1ccccc1NC(=O)Cn1nnc(C(=O)NCc2cccc(OC)c2)c1N,6.4,-1.0,0.68,i,-0.5,-1.6,nt
O=C(Nc1ccc2oc(-c3ccncc3)nc2c1)c1ccc2c(c1)OCO2,1.0,66*,0.72,i,5.9,-11,2%
CCN(Cc1nc2cc(OC)c(OC)cc2c(=O)[nH]1)C(=O)c1ccc(S(=O)(=O)N(C)C)cc1,-0.9,-3.3,0.69,nt,nt,2.3,-40%&-3%
CCOc1cc(/C=C2/NC(=S)NC2=O)ccc1OCc1ccc([N+](=O)[O-])cc1,3.2,-3.4,0.81,nt,nt,6.7,19%
Cc1ccc(NC(=O)c2c(F)cccc2Cl)cc1S(=O)(=O)N1CCOCC1,nt,0.7,0.65,i,-6.5,3.4,nt
CC(NC(=O)CSc1n[nH]c(=O)[nH]c1=O)C1CC2CCC1C2 (stereo not given),4.1,-3.5,0.65,i,7.4,2.8,1%
CC(=O)NCCc1c[nH]c2ccc(OCC(O)CNC(C)(C)C)cc12 (stereo not given),-0.8,-1.9,0.62,i,-2.6,2.3,17%
S=C(Nc1cc(Cl)cc(Cl)c1)N1CCCC1,2.2,-0.6,0.69,i,-2.2,0.9,4%
Cc1cccc(-n2c(SCC(=O)N3CC(=O)Nc4ccccc43)nc3ccccc3c2=O)c1,-1.8,9.8,0.67,i,2.8,1.9,3%
Cc1cc(C)cc(N(C(C)C(=O)NCc2ccc3c(c2)OCO3)S(C)(=O)=O)c1 (stereo not given),6.3,0.7,0.69,i,-3.7,1.6,11%
CCN(C(=O)Cc1c(C(=O)O)n(C)c2ccccc12)c1cc(OC)ccc1OC,-1.0,-3.3,0.65,i,2.0,2.8,4%
O=C(O)Cc1sc(N/N=C\c2ccccc2)nc1-c1ccccc1,6.4,3.0,nt,nt,nt,nt,22%
O=c1[nH]c(CN2CCCCC2)nc2c1C1(CCCCC1)Cc1ccccc1-2,-1.0,-2.7,0.71,nt,nt,1.4,-1%
CCCCCN(C(=O)CCC(=O)OC(C)C(=O)Nc1ccccc1C)c1c(N)n(CCCC)c(=O)[nH]c1=O (stereo not given),nt,3.4,nt,i,-6.4,nt,-2%
CC1(C)CC(=O)C(C=NCCN2CCNCC2)=C(O)C1,4.7,0.3,0.74,nt,-0.4,1.4,3%
CCOc1ccccc1N1CCN(c2nc3ccccc3nc2C(C#N)C(=O)OC(C)C)CC1 (stereo not given),3.3,-0.5,0.74,i,9.6,6.6,nt
CCOC(=O)[C@H]1[C@H]2COc3ccc(Br)cc3[C@@H]2N2C(=O)CN(Cc3ccccc3)C(=O)[C@@]12C,nt,-1.9,nt,i,-0.2,5.5,nt
O=c1c2c(nc3nc(CCc4ccccc4)[nH]n13)CCC2,nt,1.2,0.69,nt,nt,2.6,5%
CCCC(C)NC(=S)NC(=O)c1cc(S(=O)(=O)N2CCOCC2)ccc1C (stereo not given),-1.7,-2.3,0.71,nt,nt,2.4,15%
COc1cccc(CNC(=O)CCNS(=O)(=O)c2ccc3c(c2)oc(=O)n3C)c1,-0.3,-0.2,0.68,i,-2.5,0.5,nt
COc1cccc(NC(=O)NCc2ccccc2F)c1,0.9,0.3,0.69,i,-0.2,1.7,-2%
CC1=C(C(=O)OCC2CCCCC2)C(c2ccccc2F)NC(=O)N1 (stereo not given),-6.0,-1.9,0.67,i,-1.5,2.7,nt
CC1(C(=O)Nc2cccc3ncccc23)CCN1C(=O)Cc1ccc(-c2ccccc2)cc1 (stereo not given),nt,0.6,nt,i,1.9,nt,nt
CC(C)CN(C1CCS(=O)(=O)C1)S(=O)(=O)c1ccc(C(C)C)cc1 (stereo not given),-4.5,2.2,0.63,i,-1.6,3.4,nt
CC(C)(C)c1ccc(OCc2ccc(C(=O)NN)o2)cc1,-1.0,0.9,0.67,i,-1.0,5.5,5%
O=C(/C=C/[C@H]1O[C@@H](n2ccc(=O)[nH]c2=O)[C@H](O)[C@@H]1O)NCc1ccccn1,nt,-0.1,nt,i,-1.5,nt,nt

# The list is partial, so the mix of outcomes need not match the whole.
